Bioassay records (PubChem)
HNF4A DNA FP – change in binding of human HNF4 alpha to DNA. 360,000 tested, 0.3% active. activity change, % at 10 µM. HNF4a-FITC DNA binding, fluorescence polarization, 1 h. AID 1224865; in the data active = activity change above about 30%, passing the limit was not always enough;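 note: controls were the assay level and a saturating level of protein; the project sought stronger binding though the title names inhibitors; some compounds called inactive have numbers as strong as hits; positive values seem to mean higher polarization but the record does not say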
Target sequence (P41235 whole entry, looked up): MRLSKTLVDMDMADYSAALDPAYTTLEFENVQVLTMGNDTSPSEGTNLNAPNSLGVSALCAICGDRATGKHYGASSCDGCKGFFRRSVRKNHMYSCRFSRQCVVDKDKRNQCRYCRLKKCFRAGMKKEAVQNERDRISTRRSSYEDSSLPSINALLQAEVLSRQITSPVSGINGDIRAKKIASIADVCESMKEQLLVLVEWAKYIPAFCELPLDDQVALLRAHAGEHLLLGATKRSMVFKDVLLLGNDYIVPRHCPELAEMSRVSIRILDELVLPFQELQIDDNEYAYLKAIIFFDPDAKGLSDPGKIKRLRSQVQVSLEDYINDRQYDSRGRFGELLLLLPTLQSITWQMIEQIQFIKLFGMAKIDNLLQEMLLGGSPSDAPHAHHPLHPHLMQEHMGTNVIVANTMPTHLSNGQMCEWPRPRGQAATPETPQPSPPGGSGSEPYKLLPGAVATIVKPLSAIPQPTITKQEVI
FGF22 binding – shifts melting point of recombinant human FGF22 | Q9HCT0 | recombinant FGF22 thermal shift, SYPRO orange fluorescence; percent of sucrose octasulfate shift, DMSO zero | calls only at 9.99 µM | 340,000 tested, 1.5% active | AID 651658;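 active = melting point raised past a set limit in the mean and every replicate; three in four hits are not shown here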
Target sequence (Q9HCT0 whole entry, looked up): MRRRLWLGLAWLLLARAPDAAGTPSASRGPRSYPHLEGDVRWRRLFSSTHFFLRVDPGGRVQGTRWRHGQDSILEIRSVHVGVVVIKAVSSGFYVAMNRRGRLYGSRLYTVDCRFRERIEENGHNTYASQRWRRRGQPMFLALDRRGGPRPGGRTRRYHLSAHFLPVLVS
LANA-H2B inh – blocks KSHV LANA binding to histone H2A/H2B. Q9QR71. cell-free LANA-H2A/H2B peptide, fluorescence polarization. inhibition, % (no concentration beside the values). 320,000 tested, 0.6% active; in the data active = inhibition mostly above about 10%, no sharp cut-off; inactive = mostly below about 6.7%;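 note: stock transfer was 7.5 nL into about 10 µL; 0% = median of vehicle wells and 100% = median of positive control wells; one replicate is shown; the record names a cut of 25% in any replicate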
UCH37 DUB inh – blocks the human deubiquitinase UCH37. inhibition, % (test concentration not listed). purified proteasome/UCH37, Ub-AMC cleavage fluorescence. Q9Y5K5. 330,000 tested, 0.33% active;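 active = mean of two replicates above 20%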;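 note: 0% = compound-free wells with enzyme and 100% = wells lacking proteasome; stock transfer was 100 nL into about 20 µL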
Target sequence (Q9Y5K5 whole entry, looked up): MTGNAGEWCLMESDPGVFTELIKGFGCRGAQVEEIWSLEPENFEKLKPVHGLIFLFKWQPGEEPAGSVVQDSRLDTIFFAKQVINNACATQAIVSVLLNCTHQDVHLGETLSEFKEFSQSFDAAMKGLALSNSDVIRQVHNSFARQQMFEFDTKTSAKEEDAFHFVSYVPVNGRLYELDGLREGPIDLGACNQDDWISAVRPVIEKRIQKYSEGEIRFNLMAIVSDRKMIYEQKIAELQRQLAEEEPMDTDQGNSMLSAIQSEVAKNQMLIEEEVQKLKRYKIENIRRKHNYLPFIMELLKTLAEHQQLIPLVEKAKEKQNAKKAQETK
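Assay system: Proteasome-bound UCH37. Buffer or medium: pH 7.4 Tris-HCl (50 mM) with ovalbumin, ATP-MgCl2, DTT. Incubation: 30 min preincubation with enzyme, 25 min cleavage at room temperature. Measured by: fluorescence, ex 355 nm, em 460 nm. Read-out basis: percent inhibition. Control set: wells without proteasome as full block, compound-free enzyme plus substrate as uninhibited.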
ALR inh – inhibitors of human sulfhydryl oxidase ALR | P55789 | purified ALR, DTT oxidation, H2O2 HRP-luminol luminescence | inhibition, % (concentration not given with the values) | 290,000 tested, 3.8% active | AID 485317;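 active = mean and each replicate at 75% or more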;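 note: stock transfer was 7.5 nL into about 7.5 µL; 0% = neutral wells and 100% = wells with inactivated enzyme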
Ecoli growth – blocks Escherichia coli growth; OD600, 23 h; active compounds read low; OD600 absorbance (no concentration beside the values); 330,000 tested, 0.21% active; AID 1053175;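 active = OD600 absorbance below the run mean of sample wells minus 3.6 SD, in any replicate, cut at about 0.56 in these data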;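 note: stock transfer was 300 nL into about 60 µL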
Beta2AR agonist – agonists of human beta-2 adrenergic receptor inducing internalization; P07550; Am2.2-beta2AR cells, FAP receptor internalization, flow cytometry; reference of the scale not given here; response, % (test concentration not listed); 340,000 tested, 0.43% active;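 active = response above a set limit, near 3 SD of response in nonfluorescent compounds, cut at about 42% in these data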;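 note: stock transfer was 100 nL into about 11 µL; a reference agonist was the positive control; negative values mostly stem from fluorescent compounds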
* hit, by the source's call; i = inactive; . = no result given.

SMILES	HNF4A DNA FP	FGF22 binding	LANA-H2B inh	UCH37 DUB inh	ALR inh	Ecoli growth	Beta2AR agonist
Cc1c(Cl)cccc1NC(=O)c1nc(C)n(-c2cc(OC(C)C)c(Cl)cc2Cl)n1	6.4	.	-0.3	2.2	-5	0.76	-3
Cc1cc(C)cc(COc2ccc3c(C)c(CC(=O)O)c(=O)oc3c2C)c1	1.8	i	0.9	-186	6	0.68	4
COC(=O)c1ccc(NC(=O)c2ccccc2-c2ccccc2C(=O)O)cc1	-0.3	i	-1.9	4.6	-5	0.71	11
O=C(NCCS(=O)(=O)N1CCN(c2cccc(Cl)c2)CC1)C1CCCC1	-2.3	i	-0.1	-0.2	4	0.64	-2
O=C(Nc1ccc(Oc2ccccc2)cc1)C1CCCN(c2ncccn2)C1 (stereo unspecified)	0.2	.	0.6	4.2	7	0.63	-4
Cc1cc2nc(=O)c(/C=C3\C=Nc4ccccc43)c(N)n2o1	10	i	9.2	-57	-5	0.69	-8
Cc1nc2cc(NC(=O)c3cccc(S(C)(=O)=O)c3)ccc2o1	4.1	i	-0.6	-0.8	-2	0.69	-4
CCN(CC)S(=O)(=O)c1ccc(N2CCOCC2)c(NC(=O)c2cc3ccccc3oc2=O)c1	0.7	i	1.9	8.7	-5	0.67	9
O=C(Nc1nnc(C23CC4CC(CC(C4)C2)C3)s1)c1ccco1	-1.9	.	1.7	3.6	-21	0.75	-19
CC(=O)Nc1ccc(S(=O)(=O)N(C)CC(=O)N/N=C/c2ccc(C(=O)O)cc2)cc1	3.5	i	-1.4	.	.	.	3
Cc1nc(-c2ccc(F)cc2)c(CC(=O)N(C)CC(=O)Nc2ccccc2Br)s1	1.7	i	-1.0	2.2	0	0.65	1
COc1ccc(C(=O)C2CCCN(Cc3c[nH]c4ccccc34)C2)c(OC)c1 (stereo unspecified)	3.4	i	1.7	1.6	7	0.62	16

Already shown: entries from further up.
SMILES	HNF4A DNA FP	FGF22 binding	LANA-H2B inh	UCH37 DUB inh	ALR inh	Ecoli growth	Beta2AR agonist
COC(=O)c1ccc(NC(=O)c2ccccc2-c2ccccc2C(=O)O)cc1	-0.3	i	-1.9	4.6	-5	0.71	11
O=C(NCCS(=O)(=O)N1CCN(c2cccc(Cl)c2)CC1)C1CCCC1	-2.3	i	-0.1	-0.2	4	0.64	-2
O=C(Nc1ccc(Oc2ccccc2)cc1)C1CCCN(c2ncccn2)C1 (stereo unspecified)	0.2	.	0.6	4.2	7	0.63	-4
Cc1cc2nc(=O)c(/C=C3\C=Nc4ccccc43)c(N)n2o1	10	i	9.2	-57	-5	0.69	-8
Cc1nc2cc(NC(=O)c3cccc(S(C)(=O)=O)c3)ccc2o1	4.1	i	-0.6	-0.8	-2	0.69	-4

Next section
SMILES	HNF4A DNA FP	FGF22 binding	LANA-H2B inh	UCH37 DUB inh	ALR inh	Ecoli growth	Beta2AR agonist
O=C(c1ccc(-c2ccc([N+](=O)[O-])cc2)o1)N1CCCCC1	3.0	i	3.7	12	1	0.69	-9
O=C(c1cccs1)N(Cc1ccc(Cl)cc1)C1CCS(=O)(=O)C1 (stereo unspecified)	2.2	i	-4.8	2.4	-20	0.67	-1
NN1C(=O)/C(=C\c2ccco2)SC1=S	-6.3	i	7.8	6.5	54	0.65	0
CCOc1ccc(CCNC(=O)c2cc3ccccn3n2)cc1OCC	4.8	i	-3.0	5.9	7	0.75	0
CNC(=O)CN(c1ccc(Oc2ccccc2)cc1)S(=O)(=O)c1ccc(C)cc1	0.3	i	3.3	5.0	-10	0.65	-12
Cc1ccc(S(=O)(=O)N2C3C=CC(C3)C2C(=O)O)cc1 (stereo unspecified)	2.9	i	1.0	4.3	90*	0.73	-1
O=C1C=CC2C(c3ccc4c(c3)OCO4)CC1N2Cc1ccccc1 (stereo unspecified)	-2.8	.	5.0	5.1	-16	0.73	22
Cc1cc2ccccc2c(=O)n1CC(=O)NCC(=O)N1CCCC(C)C1 (stereo unspecified)	-1.1	.	1.1	-6.8	-8	0.69	3
Cc1ccc(S(=O)(=O)NCC(=O)OCC(=O)Nc2ccc(C)c(S(=O)(=O)N3CCOCC3)c2)cc1	0.1	i	1.8	-2.7	-3	0.67	-3
COc1ccc(NC(=O)CO/N=C2/CCCc3nonc32)c(OC)c1	-1.3	i	1.1	.	-2	.	2
CN(Cc1cnn(C)c1)S(=O)(=O)c1cccc([N+](=O)[O-])c1	-0.8	i	-0.9	1.5	-14	0.65	-8
CCOC(=O)C1=C(CCc2ccccc2)NC(=O)NC1c1cccc([N+](=O)[O-])c1 (stereo unspecified)	-2.1	i	0.4	5.0	.	0.68	-2
CC(C)n1nnnc1SCC(=O)N1CCN(C(=O)c2ccco2)CC1	-4.5	.	2.0	1.9	.	0.7	-4
Cc1cc(N)n(-c2ncnc3scc(-c4ccc(Cl)cc4)c23)n1	-2.6	.	5.0	4.5	.	0.72	-4
Cc1cc(C(C)(C)C)oc1C(=O)N(CC(=O)NC1CCCC1)Cc1ccc(Cl)cc1	0.5	.	0.7	0.8	-2	0.66	12
NCCc1nnc(SCc2ccccc2F)o1	5.8	.	-4.1	4.2	-9	0.72	1
CCOC(=O)C(=CNc1cc(C)ccc1-n1cccc1)C(=O)OCC	1.6	i	11	0.2	3	0.67	-15
Cc1ccccc1-n1ncc2c1CC(C)(C)CC2NC(=O)CN1CCCC1=O (stereo unspecified)	-2.7	i	2.4	0.5	-3	0.73	0
CC(C)C(NC(=O)c1ccccc1F)C(=O)NCCc1ccccn1 (stereo unspecified)	1.1	i	-7.4	1.4	-3	0.65	3
COc1c(C)cc(C(=O)C2CCCN(C(=O)C3=C(C)OCCO3)C2)cc1C (stereo unspecified)	11	i	4.8	4.2	-10	0.57	17
Cc1ccc(C)c(NC(=O)CCC(=O)NNS(=O)(=O)c2ccc(Cl)cc2)c1	3.3	i	-2.4	6.6	-5	0.65	-3
COc1ccc(NC2CCCN(C(=O)c3c(C)noc3C)C2)cc1 (stereo unspecified)	-2.4	i	3.4	0.9	99*	0.69	-7
Cc1cccnc1NC(=O)CN1C(=O)COc2ccc(Cl)cc21	-1.7	i	-2.6	3.2	.	0.69	3
CCOC(=O)Cc1c(C)nc2cc(-c3ccc(C)cc3)[nH]n2c1=O	0.7	.	1.2	-4.4	-10	0.74	-5
O=C(CNC(=O)c1ccccc1Br)NCC(c1ccco1)N1CCCCC1 (stereo unspecified)	-1.2	.	.	1.4	.	0.66	5
CCOc1ncccc1C(=O)OCCCC(=O)c1ccc(Br)cc1	-0.9	i	7.1	0.8	.	0.64	-5
N#CC(C(=S)Nc1ccccc1)c1nc2ccccc2[nH]1 (stereo unspecified)	-0.8	i	-6.0	6.7	.	0.71	-7
CCC(C)Sc1cc(C(F)(F)F)c(C(=O)Nc2ccc(Cl)cc2)cn1 (stereo unspecified)	-4.0	i	-13	4.2	.	0.65	-3
CCNC(=S)Nc1cc(OCC)c(NC(=O)c2cccs2)cc1OCC	5.4	.	-0.8	-11	-25	0.69	-26
COC(=O)c1cn(NC(=O)c2cccc(OC)c2)c(=O)c2ccccc12	2.1	.	-3.1	4.3	1	0.69	3
O=C(Nc1ccc(Cl)c(Cl)c1)OCc1cccnc1	-1.6	.	1.3	2.5	-7	0.6	-1
CCC(C)[C@H](N)c1nnc(SCC(=O)Nc2cccc(Cl)c2)o1 (stereo partly specified)	3.2	.	-2.3	2.6	41	0.71	1
Cc1sc2ncnc(Nc3ccc(N4CCOCC4)cc3)c2c1-c1ccccc1	-0.4	i	-4.4	-5.3	7	0.71	16
CCOC(=O)c1sc(=S)n(-c2cc(OC)ccc2OC)c1N	-3.2	.	-0.5	5.9	7	0.78	3
CCCCOc1ccc(C(=O)N2CCN(c3ncccn3)CC2)cc1	-3.3	i	1.5	1.6	.	0.67	-7
COc1ccc(CCNC(=O)c2ccc(CS(=O)Cc3ccc(Cl)cc3)o2)cc1OC (stereo unspecified)	-0.8	i	-0.6	-0.8	-2	0.71	-1
Cc1ccc(S(=O)(=O)c2cc(C)cc(S(=O)(=O)Nc3ccc(C(=O)O)cc3)c2C)cc1	2.8	i	-1.6	3.1	-3	0.68	6
CNC(=S)N(Cc1cccs1)Cc1cc2cc(OC)c(OC)cc2[nH]c1=O	-1.5	i	1.4	-86	-4	0.66	-3
COc1ccc(Br)cc1CNc1ccc(O)cc1	1.0	.	1.1	2.5	98*	0.67	-15
COc1cccc(/C=N/NC(=O)CNC(=O)/C=C\c2ccccc2)c1O	0.2	i	-1.1	.	2	.	7
CCC1(N(C(C)=O)c2ccc(OC)cc2)C(=O)c2ccccc2C1=O	2.0	.	10	1.6	-1	0.68	-1
COc1ccc(CN2CCCCCC2)cc1	-1.0	i	0.2	5.0	-3	0.66	9
Cc1nc2nc(-c3cccnc3)[nH]n2c(=O)c1Cc1ccccc1	-1.0	.	1.5	3.7	6	0.63	-11
O=C(CCN1C(=O)/C(=C/c2ccc3c(c2)OCO3)SC1=S)Nc1ccc(C(=O)O)cc1	5.6	i	-2.6	5.7	6	0.67	8
c1nc(NC2CCCCC2)c2[nH]cnc2n1	-2.8	.	4.3	4.5	3	0.68	-1
COc1cccc(-c2ccc3c(c2)C2CC3CCN2C(=O)c2ccc(Cl)cc2)c1 (stereo unspecified)	4.3	i	.	.	.	.	0
O=C(Cn1nc(-c2ccccc2)c2ccccc2c1=O)NCCO	-2.5	i	0.1	4.7	-1	0.67	0
CC(=O)Nc1cccc(NC(=O)C2C3C=CC(C3)C2C(=O)O)c1 (stereo unspecified)	-1.7	i	2.9	1.9	-3	0.69	9

An excerpt from above with just HNF4A DNA FP:
| compound | HNF4A DNA FP |
| --- | --- |
| COc1cccc(-c2ccc3c(c2)C2CC3CCN2C(=O)c2ccc(Cl)cc2)c1 (stereo unspecified) | 4.3 |
| O=C(Cn1nc(-c2ccccc2)c2ccccc2c1=O)NCCO | -2.5 |

Next section:
SMILES	HNF4A DNA FP	FGF22 binding	LANA-H2B inh	UCH37 DUB inh	ALR inh	Ecoli growth	Beta2AR agonist
O=C(NCC1CCCO1)C1CCN(S(=O)(=O)c2cccc3nonc23)CC1 (stereo unspecified)	-1.7	.	-3.7	5.2	39	0.73	-6
O=C(O)CN1C(=O)/C(=C/C=C/c2ccccc2)SC1=S	1.6	i	-5.4	13	64	0.62	9
COc1cccc(NC(=O)CN(C)C(=O)CN2C(=O)NC3(CCCC3)C2=O)c1	-0.6	i	-6.8	2.3	1	0.69	1
C/C(Cl)=C/CSc1nn2c(=O)c3ccccc3nc2s1	1.9	.	-9.8	1.1	10	.	-12
CCOc1ccc(N2C(=O)CC(N(Cc3ccco3)C(C)=O)C2=O)cc1 (stereo unspecified)	1.1	i	3.8	1.5	.	0.73	2
Cc1ccc(C)c(N2CCN(S(=O)(=O)CC34CCC(CC3=O)C4(C)C)CC2)c1 (stereo unspecified)	3.2	i	3.2	4.2	0	0.68	0
CC(C)CN1C(=O)c2ccc(NC(=O)C3CC3)cc2C1=O	-0.7	i	1.9	-144	-7	0.72	-8
Cc1cc(=O)oc2cc(NC(=O)c3cccc(S(C)(=O)=O)c3)ccc12	-2.2	i	2.5	-130	10	0.66	-1
CCOC(=O)C1CCN(C(=O)COC(=O)c2ccc(Br)o2)CC1	-0.3	.	2.4	5.8	-4	0.74	14
CCn1cc(C(=O)NCCc2ccc(Cl)cc2)c(=O)c2ccc(C)nc21	-5.4	i	.	1.0	.	0.6	-8
CC(=O)Nc1ccc(S(=O)(=O)N(Cc2ccccc2)c2ccccc2F)cc1	-0.8	i	6.1	-0.3	0	0.68	-9
CN(C)S(=O)(=O)c1ccc(NC(=O)COC(=O)c2n[nH]c3ccccc23)cc1	-1.4	.	15*	4.7	-6	0.73	-2
O=C(Nc1ccc(Cl)c(S(=O)(=O)N2CCOCC2)c1)c1n[nH]c(=O)c2ccccc12	4.3	i	-0.4	-3.7	-3	0.71	5
Cn1c(CO)cnc1SCC(=O)c1ccc(Br)cc1	1.0	i	1.8	0.8	23	0.63	0

Some of the compounds tested; rates above refer to the full screens.
